Compound activity (PubChem)
Mtb growth = M. tuberculosis H37Rv growth inhibitors, H37Rv strain (AID 1626); M. tuberculosis H37Rv growth inhibition; higher % means a stronger effect; 0.95% of 220,000 active; inhibition, % at 10 µM; hits with a dose series show IC50 in µM;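 active = confirmed in a dose series; inconclusive = inhibition above 80% but not taken into the dose series; inactive = below 80% or under 30% at every dose of the series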;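 note: bacteria incubated seven days before Alamar blue readout; 0% = bacteria only wells and 100% = bacteria with antibiotic wells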
RecA splice inh = Mtb RecA intein splicing inhibitors, primary screen, biochemical, fluorescence, HTS; AID 2221, 2009; Protein RecA (Mycobacterium tuberculosis (strain ATCC 25618 / H37Rv)), P9WHJ3; inhibition, %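 (about 9 µM by stock and volumes)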; cell-free RecA intein splicing; 0.75% of 290,000 active; in the data active = inhibition above about 30%; inconclusive = no clear call, values can overlap the other calls;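 note: 0% = vehicle wells and 100% = reference inhibitor control wells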
Target sequence (P9WHJ3 whole entry, looked up, canonical isoform): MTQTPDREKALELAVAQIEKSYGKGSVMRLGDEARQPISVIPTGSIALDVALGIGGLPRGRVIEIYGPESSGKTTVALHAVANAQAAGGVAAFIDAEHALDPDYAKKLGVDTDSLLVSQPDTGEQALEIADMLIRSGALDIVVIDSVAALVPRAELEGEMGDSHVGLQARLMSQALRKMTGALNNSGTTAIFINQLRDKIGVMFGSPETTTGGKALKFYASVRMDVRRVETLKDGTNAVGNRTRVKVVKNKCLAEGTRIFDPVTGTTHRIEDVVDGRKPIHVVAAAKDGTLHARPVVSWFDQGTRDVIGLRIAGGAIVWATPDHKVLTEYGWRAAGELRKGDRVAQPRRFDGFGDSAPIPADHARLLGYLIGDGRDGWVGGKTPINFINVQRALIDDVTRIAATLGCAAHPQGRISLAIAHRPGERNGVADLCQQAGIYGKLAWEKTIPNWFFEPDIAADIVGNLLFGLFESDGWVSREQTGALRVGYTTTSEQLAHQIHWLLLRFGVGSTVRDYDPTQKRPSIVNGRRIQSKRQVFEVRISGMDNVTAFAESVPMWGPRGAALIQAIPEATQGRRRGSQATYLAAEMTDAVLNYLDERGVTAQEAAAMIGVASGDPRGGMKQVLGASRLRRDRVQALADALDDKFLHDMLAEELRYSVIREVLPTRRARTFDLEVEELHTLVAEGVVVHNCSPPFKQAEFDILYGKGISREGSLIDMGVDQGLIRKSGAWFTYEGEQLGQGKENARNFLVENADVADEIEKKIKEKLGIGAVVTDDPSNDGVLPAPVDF
Mtb betalactam = beta-lactam sensitization of Mtb H37Rv, H37Rv. M. tuberculosis H37Rv growth with meropenem, percent inhibition; hits of this screen are not shown here. inhibition, % at 25 µM. 0.27% of 330,000 active;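 active = about 74% or more and at least 40 points above the plate without the antibiotic, then above 30% in a dose series; inconclusive = first-round hits that could not be retested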;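 note: growth measured after seven days incubation then overnight dye step; 0% = bacteria only wells and 100% = bacteria with antibiotic; twin plates without the antibiotic show which effects depend on it; some results filed as inactive read as strong as hits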
Arbovirus anti = antivirals against arbovirus infection, primary screen, cell-based, full library, 10K replicate subset; arbovirus infection cell-based antiviral screen; inhibition, % at 10 µM; 0.37% of 200,000 active; AID 1251, 2008;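 active = inhibition from about 30%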;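 note: bluetongue infection of BSR cells; cell survival read as ATP light after 72 h; 0% = infected wells without compound and 100% = uninfected wells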
YopH PTP inh = YopH tyrosine phosphatase inhibitors, primary screen, biochemical, fluorescence Ex485/Em525; 0.16% of 140,000 active; YopH tyrosine phosphatase [Yersinia enterocolitica]; inhibition, %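 (about 10 µM by stock and volumes)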;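 active = inhibition of 50% or more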;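 note: controls were vehicle for no effect and minimum signal wells for full effect; inactives centre near -20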
Arbovirus anti repeat = further read-out of Arbovirus anti, marked with its call; inhibition, %; measured here: 10K subset replicate screen; many hits read low in the repeat;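 first of two repeat runs on a subset; 0% = infected and 100% = uninfected wells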
* hit, by the source's call; ? = inconclusive; . = not tested or not shown. The list is partial; count on the stated rates, not on these rows.

SMILES	Mtb growth	RecA splice inh	Mtb betalactam	Arbovirus anti	YopH PTP inh	others
Cn1ncc2c(Nc3cccc(Cl)c3)nc(Nc3cccc(Cl)c3)nc21	12µM*	25	97	.	.
CC(CCc1ccccc1)NC(=O)c1cccs1 (centres undefined)	6%	4.2	9	8	-9
COc1ccc2c(CC(=O)N3CCN(S(=O)(=O)c4cccs4)CC3)coc2c1	-12%	1.6	-13	6	-25
S=C(NCCCN1CCOCC1)N1CCN(c2ccccc2)CC1	.	-3.0	-6	.	.
CC1CCN(CCCNC(=O)CN2C(=O)CSc3ccc(S(=O)(=O)N4CCOCC4)cc32)CC1	.	4.7	-8	.	.
CC(C)(C)c1n[nH]c(=S)n(N)c1=O	3%	1.9	6	3	-45
O=C(NCc1ccccc1)c1cccc(OCC(=O)N2CCN(C(=O)c3ccco3)CC2)c1	-7%	1.4	2	-13	-30
Cc1cccc2cc(CN(C(=O)c3cccc([N+](=O)[O-])c3)C(C)C)c(=O)[nH]c12	4%	2.1	0	.	.
C=CCn1c(CNC(=O)c2ccco2)nnc1SCC(=O)N1c2ccccc2Sc2ccccc21	13%	7.1	75	1	-3
N#CCOC(=O)/C=C/c1ccc2c(c1)OCO2	1%	-0.3	.	6	.
O=C1CC(/C=C/c2cccnc2)=Nc2ccccc2N1	6%	2.9	-1	-3	.
Cc1cc(C)c(NC(=O)/C=C\C(=O)O)c(Cl)c1	-12%	0.2	0	4	-30
O=C(Nc1cc(Cl)cc(Cl)c1)N1CCCC1	12µM*	3.9	56	.	.
CCCCOC(=O)NCN1C(=O)C2C3C=CC(C3)C2C1=O (centres undefined)	-10%	-1.2	-1	5	3
Cc1ccn2c(C(=O)CSc3ccc(Cl)cc3Cl)c(C)nc2c1	-6%	0.3	1	10	-40
O=C(C1CC1)N(Cc1ccco1)c1nc(-c2ccccc2)cs1	3%	6.8	5	2	15
O=C(NCCN1CCN(C(=O)c2cccc(Br)c2)CC1)C(=O)Nc1ccc(Br)cc1	.	1.2	31	.	.
CN=C1SC(CC(=O)Nc2cccc(Cl)c2Cl)C(=O)N1C (centres undefined)	7%	-3.3	-6	5	-55
CCn1c(SCC(=O)Nc2ccc(N3CCOCC3)cc2)nnc1-c1ccco1	.	-0.3	-1	.	.
Cc1cccc(C(=O)Oc2ccc(/C=N/NC(=O)c3ccncc3)cc2)c1	?	.	99	2	.
COc1ccccc1CNCCc1ccc(F)cc1	.	-0.2	4	.	.
O=C1[C@@H]2Cc3c([nH]c4ccccc34)CN2C(=O)CN1CCO	.	-1.3	-6	.	.
CC(=O)Nc1ccc(S(=O)(=O)N2CCN(C(=O)c3ncoc3-c3ccc(C)cc3)CC2)cc1	.	1.6	-7	.	.
CS(=O)(=O)N(CC(=O)N1CCc2ccccc2C1)c1ccccc1F	.	0.8	4	.	.
CC(C)CSC1=NSC2=NC(=O)/C(=C\c3ccccc3)C(=N)N12	1%	-0.9	0	1	.
CCCCC(CC)CNC(=O)CC1Nc2c3ccccc3nc(=S)n2C1=O (centres undefined)	-6%	-0.8	12	6	.
CC(C)(C)c1ccc(OCC(=O)N2CCN(c3ncccn3)CC2)cc1	.	3.5	-4	.	.
CCCn1c(C)cc(C(=O)Cn2nnc3ccccc3c2=O)c1C	6%	2.3	-5	5	.
Cc1ccc(Cn2nc(C)c(C=O)c2Cl)cc1	0%	1.6	-9	0	.
O=C(Nc1ccc(N2CCCCC2)c(Cl)c1)c1ncn[nH]1	7%	-1.6	48	-7	-5
COc1cccc(SCC2(O)CCN(C(=O)c3ccc(Cl)cc3)CC2)c1	3%	2.8	-5	3	.
CCN(CC)CCNC(=O)c1ccc(NS(=O)(=O)c2ccc3c(c2)OCCO3)cc1	0%	2.5	5	4	.
CS(=O)(=O)c1ccc(SCC(=O)NC2CCS(=O)(=O)C2)c([N+](=O)[O-])c1 (centres undefined)	1%	1.0	-4	1	.
O=C(CSc1nnc(CNC(=O)c2cccc(C(F)(F)F)c2)o1)NCc1ccco1	.	-0.2	?	.	.
NC(Cc1nc2ccccc2[nH]1)c1ccc(Cl)cc1 (centres undefined)	14%	4.0	4	.	.
NC(=O)c1cccc(NC(=O)CCCCC(=O)Nc2cccc(C(N)=O)c2)c1	.	-0.4	3	.	.
Cc1ccc(OCC(=O)N2CCN(S(=O)(=O)c3ccccc3)CC2)c([N+](=O)[O-])n1	-7%	-1.1	-2	-5	-20
Cc1ccc(-n2c(C)cc(/C=C3\C(=O)NC(=O)N(C)C3=O)c2C)cc1C	1%	1.5	4	0	-32
COc1cc(OC)cc(C(=O)N2CCN(C(=O)c3cccc(F)c3)CC2)c1	5%	-1.3	-5	2	-42
C=C(C)CNC(=S)Nc1cccc(N)n1	9%	-0.7	.	-6	.
Cc1nc2ccccc2n1Cc1ccc(Cl)cc1	.	2.8	-9	.	.
Cc1ccccc1-c1nc(CS(=O)(=O)CC(=O)NC2CCCCC2C)c(C)o1 (centres undefined)	.	0.9	-4	.	.
C/C(=N\NC(=O)c1cc(C)[nH]n1)c1ccc(-c2ccccc2)cc1	.	1.2	6	.	.
CCN(CC)C(=O)c1c(-c2ccccc2)oc2ccc(OC)cc12	11%	7.2	3	-10	-7
COCCCn1c(SCC(=O)Nc2oc(C)c3c(C)n[nH]c(=O)c23)nc2sc3c(c2c1=O)CCC3	.	0.2	6	.	.
O=C(O)Cn1nc(-c2ccccc2)ccc1=O	.	-1.1	-7	.	.
CCOC(=O)c1[nH]c2cc3c(cc2c1NC(=O)CN1CCc2ccccc2C1)OCO3	.	0.4	-10	-9	-12
O=C(Cc1cccs1)N(c1ccccc1)C1C=CS(=O)(=O)C1 (centres undefined)	-5%	1.0	1	5	11
CC(Sc1nnc(-c2ccncc2)n1C)C(=O)Nc1nccs1 (centres undefined)	.	2.6	2	.	.
Cc1ccc(/C=N/NC(=O)C[n+]2ccccc2)s1	-6%	0.9	-5	.	.
Cc1ccc(SCC(=O)Nc2ncc(C)s2)cc1	-10%	1.7	-1	6	-16
CC1CN(Cc2nc3c(c(=O)n(C)c(=O)n3C)n2CCCO)CC(C)O1 (centres undefined)	-14%	0.8	3	6	-27
Cc1ccc(C2=NS(=O)(=O)N(C)C(C(=O)Nc3ccc4c(c3)OCO4)=C2)cc1	.	2.9	-14	.	.
CCOc1ccccc1-n1nnnc1SCC(=O)NCc1ccco1	-5%	-0.9	3	6	.
O=C1C(=O)N(CCO)C(c2ccccc2[N+](=O)[O-])/C1=C(\O)c1ccccc1 (centres undefined)	.	-1.4	1	.	.
CS(=O)(=O)N(CC(=O)NC1CC2CCC1C2)c1ccc(Oc2ccccc2)cc1 (centres undefined)	-6%	-2.2	-1	-3	.
N#Cc1ccc(C23CC4(C2)[C@H](CN(Cc2ccc(C(F)(F)F)cc2)[C@@H]4c2ccccc2)C3c2ccc(C(F)(F)F)cc2)cc1 (some centres undefined)	4%	3.7	-9	.	.
Cc1ccc(C)c(NS(=O)(=O)c2cc(C(=O)NCC3CCCO3)ccc2C)c1 (centres undefined)	.	1.3	2	.	.
CC1=C(C(=O)OCc2ccccc2)C(c2cccc(F)c2)NC(=O)N1 (centres undefined)	.	3.3	2	.	.
CCOC(=O)Cc1csc(N/N=C/c2cccc([N+](=O)[O-])c2)n1	.	-1.7	-1	.	.
Additional records follow:
SMILES	Mtb growth	RecA splice inh	Mtb betalactam	Arbovirus anti	YopH PTP inh	others
COc1cc(C)c(C(=O)Oc2cc(C)c(C(=O)O)c(O)c2C)c(O)c1C(=O)O	.	-2.7	4	.	.
CCCn1c(SCC(=O)Nc2ccc(S(=O)(=O)N(C)C)cc2)n[nH]c1=O	9%	-1.5	-11	2	.
Cc1cccc(C)c1NC(=O)C1(NC(=O)c2cnccn2)CCCCC1	2%	0.9	3	3	-41	Arbovirus anti repeat=-1
COc1cc(OC)cc(C(=O)N2CCN(C(=O)COc3ccc4ccccc4c3)CC2)c1	0%	1.7	33	6	-37
O=C(c1cc(COc2ccc(F)cc2Cl)on1)N1CCc2ccccc2C1	5%	-2.7	-2	3	.
CC(=O)O[C@@H]1/C=C/[C@](C)(O)C[C@@H](C)C/C=C/[C@H]2[C@@H]3O[C@]3(C)[C@@H](C)[C@H]3[C@H](Cc4ccccc4)NC(=O)[C@@]312	-15%	8.8	6	.	.
NC(=O)c1nsc(C(=O)N(c2ccccc2)C(C(=O)NC2CCCCC2)c2ccc(O)cc2)c1N (centres undefined)	.	-1.0	-1	.	.
NS(=O)(=O)c1ccc(NC(=O)COC(=O)CCNC(=O)NC23CC4CC(CC(C4)C2)C3)cc1	-2%	1.2	-2	11	-37	Arbovirus anti repeat=7
CCOc1ccccc1NC(=O)COC(=O)CNS(=O)(=O)c1ccc(C)cc1	-2%	-1.6	0	-1	-25
COc1ccc2c(c1OC)C(=O)N(c1ccc(O)cc1)C2=O	-5%	-0.3	-5	-7	.
COc1ccccc1NC(=O)c1ccc(NC(=O)CSc2ncccn2)cc1	6%	-1.8	47	2	.
O=C(N/N=C/c1c(O)n(CCc2ccccc2)c(=O)[nH]c1=O)c1ccccc1	-6%	0.7	34	.	.
CCc1ccccc1NC(=O)C1CCCN1S(=O)(=O)c1ccc(-c2ccc(=O)[nH]n2)s1 (centres undefined)	.	0.0	-8	.	.
COc1ccc(CN2CCN(C(=O)c3ccco3)CC2)c(OC)c1OC	.	-2.0	3	.	.
O=Cc1ccc(OCc2cccc(C(F)(F)F)c2)cc1O	4%	7.0	47	-4	.
Cc1ccc(SCCNC(=O)c2ccc(CN3CCOCC3)cc2)cc1	-1%	-4.9	-3	-4	.
CN1CCN(CC(=O)N2c3ccccc3C(C)(c3ccc(Cl)cc3)CC2(C)C)CC1 (centres undefined)	7%	0.4	8	-9	-5
CN(C)CC(C)(C)CNC(=S)Nc1cc(S(=O)(=O)N2CCOCC2)ccc1Cl	4%	-3.2	-11	4	.
COc1ccc(/C=C(\C#N)C(=O)NCC(c2ccc(F)cc2)N2CCOCC2)cc1 (centres undefined)	4%	4.2	-5	.	.
CC(=O)n1c(=O)c2ccccc2c(=O)n1-c1ccccc1	.	0.0	4	.	.
CCOc1ccc(C(=O)NC(=S)NCc2cccnc2)cc1[N+](=O)[O-]	3%	0.8	-1	-4	-30
CCOC(=O)c1c(S(=O)(=O)N2CCCC(C)C2)c(C)n(C)c1C (centres undefined)	.	5.7	-7	.	.
Cc1ccnc(NC(=O)c2ccc3c(c2)S(=O)(=O)c2ccccc2C3=O)c1	-4%	-3.7	-2	.	.
CC(NC(=O)CC1Nc2ccccc2NC1=O)c1ccccc1 (centres undefined)	-6%	-2.8	-3	5	-31

Structural class, the compounds so far containing an aryl methoxy group
SMILES	Mtb growth	RecA splice inh	Mtb betalactam	Arbovirus anti	YopH PTP inh	others
COc1ccc2c(CC(=O)N3CCN(S(=O)(=O)c4cccs4)CC3)coc2c1	-12%	1.6	-13	6	-25
COc1ccccc1CNCCc1ccc(F)cc1	.	-0.2	4	.	.
COc1cccc(SCC2(O)CCN(C(=O)c3ccc(Cl)cc3)CC2)c1	3%	2.8	-5	3	.
COc1cc(OC)cc(C(=O)N2CCN(C(=O)c3cccc(F)c3)CC2)c1	5%	-1.3	-5	2	-42
CCN(CC)C(=O)c1c(-c2ccccc2)oc2ccc(OC)cc12	11%	7.2	3	-10	-7
COc1cc(C)c(C(=O)Oc2cc(C)c(C(=O)O)c(O)c2C)c(O)c1C(=O)O	.	-2.7	4	.	.
COc1cc(OC)cc(C(=O)N2CCN(C(=O)COc3ccc4ccccc4c3)CC2)c1	0%	1.7	33	6	-37
COc1ccc2c(c1OC)C(=O)N(c1ccc(O)cc1)C2=O	-5%	-0.3	-5	-7	.
COc1ccccc1NC(=O)c1ccc(NC(=O)CSc2ncccn2)cc1	6%	-1.8	47	2	.
COc1ccc(CN2CCN(C(=O)c3ccco3)CC2)c(OC)c1OC	.	-2.0	3	.	.
COc1ccc(/C=C(\C#N)C(=O)NCC(c2ccc(F)cc2)N2CCOCC2)cc1 (centres undefined)	4%	4.2	-5	.	.
